Bioassay records (PubChem)
Vif A3G: inhibitors of Vif binding to APOBEC3G peptide, primary screen, biochemical, TR-FRET, GST-Vif 1-94, biotin-A3G peptide, dose response retest (AID 1117319); Virion infectivity factor (Human immunodeficiency virus type 1 group M subtype B (isolate …; hit rate 0.57% among 260,000; inhibition, %, or IC50 in µM where a hit was titrated; TR-FRET GST-Vif / biotin-A3G peptide binding; higher % means a stronger effect; test concentration not given here; strong numbers were not always called active;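 active = above the screen mean plus three standard deviations and confirmed in dose response; inconclusive = results disagree or hit not tested in dose response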;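 also: Vif residues 1-94 fused to GST binding biotinylated APOBEC3G peptide 110-148; 0% = full assay without inhibitor and 100% = GST in place of GST-Vif; retest series ran down from 100 µM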
RanGTP-Impb inh: inhibitors of RanGTP-importin-beta interaction, primary screen, biochemical, FRET, CFP-Ran, YFP-importin-beta, homogeneous; hit rate 1.1% among 300,000; cell-free CFP-Ran/YFP-importin-beta FRET ratio; inhibition, % (concentration not given with the values);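 active = most replicates above 15%; inconclusive = exactly half above 15%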;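 also: 0% = DMSO wells and 100% = Ran loaded with GDP instead of GTP; wells of about 40 µL received 100 nL stock; the first replicate is given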
Calb FLC: C. albicans growth inhibition with fluconazole, primary screen, CaCi-2 strain, Alamar Blue fluorescence | growth inhibition, % (concentration not given with the values) | hit rate 0.57% among 300,000 | C. albicans CaCi-2 (fluconazole-resistant clinical isolate) + fluconazole, 48 h;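 active = most replicates above 75%; inconclusive = exactly half above 75%; inactive = most below 75%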;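 also: all wells also contain fluconazole at 8 µg/ml as a sub-toxic cotreatment; 0% = median of DMSO wells and 100% = median of geldanamycin control wells; wells of about 8 µL received 7.5 nL stock; the first replicate is given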
Beta cell apopt: inhibitors of cytokine-induced beta cell apoptosis, primary screen, luminescence. INS-1E cytokine-induced death, ATP luminescence, 48 h; percent of positive-control rescue, neutral wells zero. protection from apoptosis, % (concentration not given with the values). hit rate 0.8% among 300,000. AID 435005, 2010;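 active = all replicates at 75% or more, or half of them and the mean; inconclusive = half reach 75% but not the mean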;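 also: 0% = cytokine-treated negative control wells and 100% = positive control rescue; higher means more ATP so stronger rescue from cytokine killing; wells of about 40 µL received 100 nL stock; the first replicate is given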
AF4-AF9 inh: inhibitors of AF4 peptide binding to AF9, primary screen, biochemical, AlphaScreen, biotin-AF4 peptide, FLAG-AF9, single point; AID 651704, 2012; inhibition, % at 10 µM; Protein AF-9 (Homo sapiens), P42568; hit rate 0.47% among 350,000;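 active = every replicate reaching a set inhibition limit, whatever the replicate mean, cut at about 25% in these data; inconclusive = mean inhibition reaches that limit but some replicates miss it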;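 also: 0% = plate neutral control median and 100% = total signal loss; the record names both 10 and 1 µM as test concentration; the first replicate is given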
Target sequence (P42568 whole entry, looked up): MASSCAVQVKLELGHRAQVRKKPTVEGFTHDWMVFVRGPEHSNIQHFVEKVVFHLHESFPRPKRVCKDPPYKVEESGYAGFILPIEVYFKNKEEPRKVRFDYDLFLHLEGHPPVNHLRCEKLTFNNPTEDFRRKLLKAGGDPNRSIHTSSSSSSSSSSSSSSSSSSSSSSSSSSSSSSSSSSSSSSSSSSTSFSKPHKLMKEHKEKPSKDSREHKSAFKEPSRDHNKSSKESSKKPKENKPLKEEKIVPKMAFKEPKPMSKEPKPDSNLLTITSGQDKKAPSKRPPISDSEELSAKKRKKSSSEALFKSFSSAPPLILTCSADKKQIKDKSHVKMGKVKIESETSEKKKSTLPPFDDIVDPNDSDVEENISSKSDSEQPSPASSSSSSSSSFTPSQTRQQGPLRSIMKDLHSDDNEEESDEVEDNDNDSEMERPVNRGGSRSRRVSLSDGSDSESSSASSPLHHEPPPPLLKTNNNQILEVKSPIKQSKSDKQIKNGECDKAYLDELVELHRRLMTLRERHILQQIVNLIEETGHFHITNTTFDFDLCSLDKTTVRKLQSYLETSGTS
Bfl-1 A1 inh: caspase 3/7 activation in MEF A1-2A-BIM cells, primary screen, A1 inhibitor project, cell-based, luminescence, HTS; Caspase-Glo 3/7 luminescence, 3 h; percent of clofoctol response, vehicle zero; caspase activation, % (concentration not given with the values); hit rate 0.066% among 330,000; AID 2462, 2010;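 active = over half of replicate activation scores above 10%, or exactly half above 10 with the replicate mean above 10; inconclusive = replicate mean below 10 yet half the replicates above 10; inactive = over half of replicates below 10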;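 also: wells of about 30 µL received 50 nL stock; many hits fall short of the cut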
LANA-H2B inh: blockers of LANA interaction with H2A/H2B – biochemical, FP readout, HTS, primary screen; Protein LANA1 (Human herpesvirus 8 type P (isolate GK18)), Q9QR71; cell-free LANA-H2A/H2B peptide, fluorescence polarization; inhibition, % (concentration not given with the values); hit rate 0.6% among 320,000; in the data active = inhibition mostly above about 10%, no sharp cut-off; inactive = mostly below about 6.7%;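 also: stock transfer was 7.5 nL into about 10 µL; 0% = median of vehicle wells and 100% = median of positive control wells; one replicate is shown; the record names a cut of 25% in any replicate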
T cruzi repl: inhibitors of intracellular T. cruzi growth, primary screen, luminescence, NIH3T3 host cells; T. cruzi beta-gal in NIH3T3, 90 h; hit rate 1.4% among 300,000; inhibition, % (concentration not given with the values);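 active = mean inhibition across valid replicates above about 55%, limit read from the data; inconclusive = mean below that limit but half or more replicates reach it; inactive = mean below it, under half of replicates reach it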;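 also: signal also drops with host cell toxicity which is not excluded here; 0% = plate median of DMSO wells and 100% = zero luminescence signal; higher percent means less beta-gal luminescence so fewer parasites; stock transfer was 50 nL into about 50 µL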
Starred values were filed as active, the others as inactive; ? = inconclusive; / = no result given.

SMILES	Vif A3G	RanGTP-Impb inh	Calb FLC	Beta cell apopt	AF4-AF9 inh	Bfl-1 A1 inh	LANA-H2B inh	T cruzi repl
Cc1ccc2nc(NC(=O)CN(C)S(=O)(=O)c3ccc(Br)s3)sc2c1	-1%	5.4	17	1	/	0.4	-3.5	47
COc1cccc(C(=O)NCCS(=O)(=O)NC2CCCC2)c1	4%	2.3	15	-6	-3.7	-0.2	-1.6	-7
Cc1ccc(NC(=O)c2sc(Cl)nc2-c2ccccc2)cc1C	-139%	-2.6	13	12	/	1.2	2.0	16
CC(C)c1cc(Br)ccc1OCCN1C(=O)NC(C)(C)C1=O	-1%	2.2	-18	1	-2.7	0.9	1.3	-12
CC(=O)NC(CC(=O)Nc1ccc2c(c1)OCCO2)c1ccccc1 (stereo not drawn)	2%	-1.1	-7	0	-2.2	0.5	1.7	-2
COc1ccccc1NC(=O)c1nn(C)c(C(=O)Nc2ccccc2OC)c1[N+](=O)[O-]	-6%	-1.5	-6	-1	5.7	1.1	-3.5	-7
O=C(NCCCc1ccccc1)c1ccc(-n2cncn2)c([N+](=O)[O-])c1	-4%	2.9	0	-2	0.8	1.5	-1.4	42
CCSc1ccccc1C(=O)NCc1ccc2c(c1)OCO2	2%	-0.8	-4	-8	/	0.4	-2.2	-2
Cc1ccc(NC(=O)CN2C(=O)NC(Cc3ccccc3)C2=O)c(Br)c1 (stereo not drawn)	4%	?	9	-5	-1.2	-0.5	-0.3	-4
O=C(NNC(=O)c1cc2cc(Br)ccc2oc1=O)c1ccc(O)cc1	-2%	4.2	-4	-3	-0.3	0.0	0.7	4
O=C(COC(=O)/C=C/c1cccc(Br)c1)NC1CCCCC1	?	/	/	1	-0.6	-2.4	1.4	/
Cc1nn(-c2ccccc2)c2sc(C(=O)NCCN3CCOCC3)cc12	6%	?	32	/	/	0.7	-2.0	4
CC1N(C)c2cc(NC(=O)c3ccco3)c(P(=O)(Nc3ccc([N+](=O)[O-])cc3)N3CCOCC3)cc2C1(C)C (stereo not drawn)	-8%	-132	50	19	20	-1.2	1.8	50
COc1ccc(NC(=O)COC(=O)c2ccco2)c([N+](=O)[O-])c1	/	?	-8	10	0.5	0.1	-6.2	-18
COc1ccc2nc(SCC(=O)NC(C)(C)C)[nH]c2c1	6%	0.4	-12	/	/	0.3	0.0	-5
Cc1cc(NC(=O)COC(=O)c2c(C)noc2C)ccc1Br	/	-0.6	-8	-1	-1.8	-0.1	-2.6	10
C=CCN1C(=Nc2cccnc2)SCC1(O)c1ccc(C)cc1 (stereo not drawn)	26%	-3.6	16	6	/	-0.3	1.6	6
O=C(N/N=C/c1c[nH]c2ccccc12)c1ccc(Br)cc1	0%	0.0	-7	-2	7.2	0.2	-1.4	-7
CSc1ncccc1C(=O)OCC(=O)c1cc2ccccc2o1	18%	19*	14	/	/	0.8	0.2	0
CNC(=O)CN(c1ccc(C(C)C)cc1)S(C)(=O)=O	?	-5.3	?	-1	/	0.3	-8.0	-15
CCn1c(=O)c(C)nn2c3ccccc3nc12	-1%	6.8	1	-7	/	0.4	-2.9	-15
Cc1ccc2nc(-c3ccccc3N)[nH]c2c1	/	5.1	-5	1	-0.2	-9.3	1.6	22
CCC(=O)NC(C)c1cc(Cl)c2ccccc2c1O (stereo not drawn)	/	/	/	-2	-0.9	2.0	3.6	/
O=C(Nc1ccc(N2CCCC2)c(Cl)c1)c1ccco1	-1%	-5.1	-11	/	/	-5.1	-4.2	38
CCCC(=O)Nc1nc2c(s1)COc1ccccc1-2	/	2.9	14	-4	0.9	/	-5.8	-7
O=C(CN1CCC(NC(=O)c2ccccc2F)CC1)Nc1ccc2c(c1)OCCO2	/	?	-8	-2	-0.4	-0.8	-3.2	-3
Cc1ccc(C2C(C#N)=C3N=C(N)c4ccccc4N3C3=C2C(=O)CCC3)cc1 (stereo not drawn)	14%	-5.9	-3	0	10.0	0.0	-5.0	22
O=C(CCCn1cnc([N+](=O)[O-])n1)Nc1cccc(O)c1	10%	0.9	17	/	-1.2	0.8	-2.8	12
CCCS(=O)(=O)N1CCN(CC2CC3C=CC2C3)CC1 (stereo not drawn)	-1%	/	-15	/	/	0.1	-2.7	/
CC1CCCN(C(=O)Cn2c(=O)oc3cc(S(=O)(=O)N4CCCCC4)ccc32)C1 (stereo not drawn)	/	/	/	-12	-4.1	0.3	-8.6	/
Cc1ccc(C(C)n2cc(C(=O)NCc3ccccn3)nn2)cc1 (stereo not drawn)	2%	2.4	-4	1	-13	0.9	11	8
Nc1cc(=O)[nH]c(SCC(=O)Nc2cc(S(=O)(=O)N3CCCCC3)ccc2Cl)n1	-7%	/	/	-3	?	-0.5	0.1	/
COc1ccc(C(=O)c2ccc(N(C)C)cc2)c(OC)c1	2%	2.2	58	11	-50	-1.4	-1.5	-32
CCCCc1ccc(NC(=O)CSc2nc3ncccc3[nH]2)cc1	/	0.2	54	20	-12	-2.0	5.4	12
CC(c1ccccc1F)n1cc(C(=O)NCCc2ccco2)nn1 (stereo not drawn)	1%	-3.0	-12	/	/	-0.9	-5.6	22
CCOC(=O)c1csc(NC(=O)CSc2nnnn2-c2ccc(OC)cc2)n1	-3%	10	8	-3	/	0.9	-5.1	-3
COc1cccc(N2CCN(C(=O)CCC(=O)N3CCOc4ccc(C)cc43)CC2)c1	/	4.1	-5	-5	4.9	1.3	-2.2	2
O=C(COc1ccc(-c2nnco2)cc1)N1CCN(S(=O)(=O)c2ccc3ccccc3c2)CC1	1%	3.7	-9	0	/	-0.5	-3.7	0
O=C(CNS(=O)(=O)c1ccc(Br)cc1)NCc1cccnc1	/	2.0	0	-3	-12	-0.4	-0.1	-13
COc1nc(C)ccc1-c1noc(-c2ccco2)n1	9%	?	7	-2	/	-8.7	0.8	10
CC1=Nn2c(nnc2-c2ccco2)SC1	4%	5.8	-8	-6	/	0.2	1.9	-22
O=C(OCC(=O)N1CCOCC1)c1ccc2ccccc2c1	/	/	/	-3	0.0	0.2	-0.1	/
CC12CCC(C(=O)Nc3ccncc3)(CC1O)C2(C)C (stereo not drawn)	-6%	-2.4	-6	/	/	1.8	-3.3	-4
CCC(=O)N(C1=C(NC(C)C)C(=O)c2ccccc2C1=O)C(C)C	6%	2.5	31	-3	-5.0	0.8	-1.7	-8
O=C(CCc1nc2ccccc2c(=O)[nH]1)Nc1nnc(SCc2ccccc2F)s1	/	/	/	42	-2.8	-0.4	1.4	/
CC(=O)Nc1ccc(S(=O)(=O)N2CCSC2C(=O)O)cc1 (stereo not drawn)	?	7.6	5	-4	/	-0.7	-6.0	-7
CC(C)COC(=O)c1cc(=O)[nH]c2ccccc12	-6%	-0.6	1	-1	/	0.3	-0.5	6
Cc1cccn2c(=O)c(C=Nc3ccccc3)c(NCc3ccco3)nc12	6%	7.5	9	0	/	-0.3	2.2	-10
CCCOc1cccc(C(=O)Nc2ccc3c(c2)OCCO3)c1	/	2.5	-7	/	-2.8	-6.5	-6.0	?
C=CCN1C(=O)S/C(=C/c2ccsc2)C1=O	-4%	-1.1	-10	-8	/	-1.9	-2.8	19
Next section
SMILES	Vif A3G	RanGTP-Impb inh	Calb FLC	Beta cell apopt	AF4-AF9 inh	Bfl-1 A1 inh	LANA-H2B inh	T cruzi repl
CCC1Sc2ccc(S(=O)(=O)CCC(=O)N3CCc4ccccc43)cc2NC1=O (stereo not drawn)	/	7.9	0	-2	-0.3	0.5	1.3	19
O=C(NCCS(=O)(=O)N1CCCCCC1)c1ccc(F)cc1	-3%	-1.7	-7	0	0.1	-0.5	-0.8	-10
Cc1ccc(C(=O)NNC(=O)c2ccc(Br)s2)cc1S(=O)(=O)N1CCOCC1	-1%	/	/	0	-2.6	1.7	-3.7	/
O=C(NCc1ccccn1)C1CCN(S(=O)(=O)N2CCC3(CC2)OCCO3)CC1	?	-0.2	2	-3	/	-0.2	1.0	-18
O=C(c1cccc(Br)c1)N1CCN(C(=O)N2CCCCC2)CC1	-1%	2.3	-8	2	-0.2	-0.1	-1.1	7
CSc1ccc(CN2CCCC(N3CCN(c4ccccc4)CC3)C2)cc1 (stereo not drawn)	/	-7.6	-16	/	12	0.7	-3.8	33
O=C(Nc1ccccc1)c1cc([N+](=O)[O-])ccc1N1CCCCC1	2%	/	/	-1	3.3	2.0	0.2	/
CC1CCCN(C(=O)Cn2c3ccccc3c3nc4n(c(=O)c32)CCS4)C1 (stereo not drawn)	/	0.9	34	-3	-9.6	1.8	2.4	7
Cc1cccc(Nc2ncnc3onc(-c4cccc(Cl)c4)c23)c1C	/	1.0	35	9	0.1	0.4	1.4	-12
COCc1nc2oc3ccc(F)cc3c(=O)c2cc1C(=O)OC	-10%	-0.3	5	-4	1.0	-3.8	3.5	-8
O=C(COC(=O)c1ccc(F)c(S(=O)(=O)N2CCOCC2)c1)Nc1ccc2[nH]c(=O)[nH]c2c1	-7%	/	/	3	1.4	0.7	/	/
Cc1ccc(NC(=O)CSc2n[nH]c(C)c2[N+](=O)[O-])cc1C	/	0.4	8	-3	-9.5	0.6	1.6	4
Cn1cccc1Cc1nnc(SCC(=O)NCC2CCCO2)n1-c1ccc(F)cc1 (stereo not drawn)	18%	-1.6	-3	-9	-0.1	-0.3	-0.5	-7
C/C(=N\NC(=O)CSCc1ccc(Cl)cc1)c1ccc(NC(=O)c2ccccc2)cc1	12%	2.5	0	-3	/	-0.3	6.6	6
COc1ccc(OC)c(NC(=O)c2ccc(CSc3nnc(C)s3)cc2)c1	/	-2.8	-16	-6	0.1	0.9	4.1	20
COC(=O)c1[nH]c2c(c1C)C(=O)CC(c1cccs1)C2 (stereo not drawn)	-1%	-1.1	-10	17	/	0.2	1.0	12
CCCS(=O)(=O)N1CCC(C(=O)NCc2ccccc2Cl)CC1	-2%	/	/	-6	/	0.3	-0.4	/
Cc1cc(C)cc(Nc2nc3ccccc3c(=O)[nH]2)c1	-3%	-1.6	3	0	-0.7	-0.5	1.6	20
COc1ccc(/C=C/C(=O)NC(=S)NCC2CCCO2)cc1 (stereo not drawn)	-10%	1.2	9	-7	-15	0.5	-2.1	3
O=c1cc(CN2CCN(c3ccccc3)CC2)nc2scc(-c3ccccc3)n12	28%	-1.9	-3	-5	3.3	-0.7	-2.5	31
COc1ccc(C(C)(C)C)cc1NC(=O)CCN1C(=O)C2CCCCC2C1=O (stereo not drawn)	5%	/	/	-2	3.0	0.5	2.9	/
O=C(O)c1cc(S(=O)(=O)Nc2ccc(N3CCCCC3)cc2)ccc1Cl	17%	1.1	11	-5	-1.7	0.2	-4.4	2
CCN(CC(=O)Nc1ccc(NC(C)=O)cc1)C(=O)c1cc(-c2ccccc2)nn1-c1ccccc1	-5%	1.0	7	-8	-0.6	1.0	-1.9	-2
